# Biofilm kill mix: mixture kills Candida albicans biofilm cells. C. albicans biofilm persisters + clotrimazole, fluorescence viability; primary screen in compound mixtures of four per well. 120,000 compounds, 0.02% hits. inhibition, % at 7.6 µM. AID 1242;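 active = inhibition above 30.3% in the primary screen of four-compound pools, then above 30% when the compound was retested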;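 note: compounds exposed to preformed 24 h biofilms for 48 h; the number belongs to the whole pool; some results filed as inactive read as strong as hits; inactives centre near 12; 0% = biofilm with clotrimazole alone and 100% = kill control; retested singly at about 60 µM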
#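 System: C. albicans CAF4-2 wild-type biofilms; Medium: RPMI/MOPS medium, pH 7.0; Reagent: Clotrimazole, 50 µg/mL; Times: biofilm formation 24 h, compound exposure 48 h, 37 °C; Detection: 2-h Alamar Blue fluorescence, 535/590 nm excitation/emission; Evaluation: percent inhibition of biofilm viability.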
# * = called active by the depositor. An excerpt; the hit share may differ from the screen's.
> CC(C)CN(CC(C)C)c1nnc(N)s1
- Biofilm kill mix: 8

> O=C(CN1C(=O)CSCC1=O)Nc1ccc2c(c1)OCO2
- Biofilm kill mix: -1

> CC(=O)Nc1c(O)nc(SCC(=O)Nc2nnc(SCc3ccccc3)s2)[nH]c1=O
- Biofilm kill mix: 24

> Cc1ccc(N/C=C2\C(=O)N(c3ccc(F)cc3F)C(c3cccnc3)S2(=O)=O)cc1 (stereo not given)
- Biofilm kill mix: 22

> CCOC(=O)C(NC(C)=O)(Nc1ccc(S(=O)(=O)Nc2cc(C)on2)cc1)C(F)(F)F (stereo not given)
- Biofilm kill mix: 13

> Cc1ccc(-c2nc(NC(=O)CSc3cc(C)c4ccccc4n3)ns2)cc1
- Biofilm kill mix: 4

> COC(=O)Cc1ccc2sc(-c3ccccc3)nc2c1
- Biofilm kill mix: 7

> CSc1cc(C)c(OCC(=O)Nc2ccc(NC(C)=O)cc2)c(C)c1
- Biofilm kill mix: 29

> S=C(Nc1ccc(Cl)cc1)N1CCCCC1
- Biofilm kill mix: 13

> CCn1cc(CN2CCN(Cc3ccc(C)o3)C(CCO)C2)c2ccccc21 (stereo not given)
- Biofilm kill mix: 30

> CC(C)(C)NC(=O)NC(=O)COC(=O)Cn1cnc2ccccc2c1=O
- Biofilm kill mix: 10

> COC(=O)c1nnn(-c2nonc2N)c1CSc1nnc(C)s1
- Biofilm kill mix: 21

> COc1ccc(NC(=O)C(CCCCNC(=O)OC(C)(C)C)NC(=O)OCc2ccccc2)cc1 (stereo not given)
- Biofilm kill mix: 18

> Cc1cc(OCC(=O)NCc2cccnc2)ccc1[N+](=O)[O-]
- Biofilm kill mix: 24

> CC1CCCCN1C(=O)COc1ccc(F)cc1 (stereo not given)
- Biofilm kill mix: 14

> Cc1c(C(c2ccccc2O)c2c(C)n(C)n(-c3ccccc3)c2=O)c(=O)n(-c2ccccc2)n1C
- Biofilm kill mix: -11

> C/C=C\C(=O)Nc1cccc(C2=NOC3(C2)C[C@H](C(N)=O)N(C(=O)/C=C/CC)C3)c1 (stereo not given in full)
- Biofilm kill mix: 24

> Cc1ccc(NC(=O)CSCc2nc3c(nnn3Cc3ccc(F)cc3)c(=O)[nH]2)c(C)c1
- Biofilm kill mix: 20

> Cc1ccc(C(=O)Nc2cccc([N+](=O)[O-])c2)cc1S(=O)(=O)Nc1ccc(C(=O)O)cc1
- Biofilm kill mix: 10

> O=C(Cc1ccccc1Cl)Nc1cccc(S(=O)(=O)N2CCOCC2)c1
- Biofilm kill mix: 9

> CCn1cnc2cc(NCc3ccc(N(C)C)cc3)ccc21
- Biofilm kill mix: 13

> O=C(COc1ccccc1Cl)Nc1ccc(C(=O)c2ccc(C(=O)O)cc2)cc1
- Biofilm kill mix: 20

> CCOc1ccccc1CNC(=O)c1cn(C)c(=O)c2c1c1ccccc1n2C
- Biofilm kill mix: 16

> COc1ccc(-n2c(=O)c3ccccc3n(Cc3cccc(C)c3)c2=O)cc1OC
- Biofilm kill mix: 8

> Cc1ccc(CNC(=O)CO/N=C/c2ccc3c(c2)OCO3)cc1
- Biofilm kill mix: 8

> Cc1cc([N+](=O)[O-])cc2c1NC(c1ccccn1)C1CC=CC21 (stereo not given)
- Biofilm kill mix: 16

> O=[N+]([O-])c1ccccc1CN1CCN(Cc2ccccn2)CC1
- Biofilm kill mix: 8

> O=C(COC(=O)CCc1ccc(S(=O)(=O)N2CCOCC2)cc1)Nc1cccc(Cl)c1
- Biofilm kill mix: 3

> O=C(CCS(=O)(=O)c1cccc2nonc12)NCc1ccc(Cl)cc1
- Biofilm kill mix: 11

> O=C(/C=C\Nc1ccc(Br)cc1)c1cccnc1
- Biofilm kill mix: 17

> COC(=O)c1cc(NS(=O)(=O)c2ccc(Cl)c(N3C(=O)c4ccc(C(=O)O)cc4C3=O)c2)cc(C(=O)OC)c1
- Biofilm kill mix: 8

> O=C(NCc1ccco1)c1ccc(Cn2c(=S)[nH]c3ccccc3c2=O)cc1
- Biofilm kill mix: 27

> COc1cc(OC)c2c(C)cc(=O)oc2c1C(CCN1CCOCC1)c1ccc2c(c1)OCO2 (stereo not given)
- Biofilm kill mix: 19

> CC(=O)c1ccc(NC(=S)NN2C(C)CCCC2C)cc1 (stereo not given)
- Biofilm kill mix: 12

> CC1CN(c2ccc(NC(=S)NNCCC#N)cc2)CC(C)O1 (stereo not given)
- Biofilm kill mix: 11

> CCN(CC)c1nc(N)n(CCSC(=S)N(C)C)c(=O)n1
- Biofilm kill mix: -1

> COc1ccc(OCC(O)CNC(=O)/C=C/c2cccc([N+](=O)[O-])c2)cc1 (stereo not given)
- Biofilm kill mix: 16

> CCOc1ccc(NC(=O)Nc2cc(C(C)C)ccc2C)cc1
- Biofilm kill mix: 14

> CC(=O)c1nn(-c2ccccc2)cc1C(=O)c1cccc(Br)c1
- Biofilm kill mix: 9

> CCCCCN1CN(S(=O)(=O)c2cccs2)c2nc3ccccc3nc21
- Biofilm kill mix: -5

> CCCCc1nc2sc3c(=O)n(N)cnc3c2c2c1CCC2
- Biofilm kill mix: -9

> O=C(CC(=O)N/N=C/c1cccs1)NCc1ccccc1
- Biofilm kill mix: 17

> Cc1ccnn1CCC(=O)O
- Biofilm kill mix: 21

> CC(COc1ccccc1)N(CCCl)Cc1ccccc1 (stereo not given)
- Biofilm kill mix: 15

> O=[N+]([O-])c1ccc(CN2CCN(c3ccc4ccccc4n3)CC2)cc1
- Biofilm kill mix: 14

> NNC(=O)/C(=C/c1cccs1)NC(=O)c1ccccc1Cl
- Biofilm kill mix: 18

> CCN(CC)N=Nc1ccc(S(=O)(=O)N2CCSC2C(=O)O)cc1 (stereo not given)
- Biofilm kill mix: 10

> CCn1nccc1C(=O)Nc1cc(Cl)cc(Cl)c1
- Biofilm kill mix: 11

> O=C1CC(c2ccc(F)cc2)CC2=C1C(c1ccc([N+](=O)[O-])o1)Nc1ccccc1N2 (stereo not given)
- Biofilm kill mix: 26

> O=[N+]([O-])c1ccc(Nc2cccc(F)c2)nc1
- Biofilm kill mix: 12

> COc1ccc(NC(=O)CSc2nnc(Cn3cnc([N+](=O)[O-])n3)n2C)cc1
- Biofilm kill mix: 6

> COCCNC(=S)NC1CC2CCC(C1)N2Cc1ccccc1 (stereo not given)
- Biofilm kill mix: 8

> C(=N\Nc1nc(-c2cccnc2)nc2ccccc12)/c1ccccc1
- Biofilm kill mix: 31

> CC/C(=N/NC(=O)c1ccc(Br)cc1)c1ccc(OCCN2CCOCC2)cc1
- Biofilm kill mix: 11

> O=C(O)c1ccccc1NSc1ccccc1[N+](=O)[O-]
- Biofilm kill mix: 12

> Cc1ccc(NC2Sc3ccccc3NC2=O)cc1Cl (stereo not given)
- Biofilm kill mix: 13

> COc1ccc(-c2cnc[nH]2)cc1
- Biofilm kill mix: 9

> CCOC(=O)C1(Cc2cccc(F)c2)CCN(Cc2ccon2)CC1
- Biofilm kill mix: 11

> O=C(CSc1ncnc2sc3c(c12)CCC3)Nc1ccccc1C(=O)O
- Biofilm kill mix: 11

> S=c1nc(C2CC2)n(-c2ccccc2)[nH]1
- Biofilm kill mix: 15

> C/C(N)=C(/C#N)C(=O)COC(=O)c1cc(-c2cccc(Br)c2)nc2ccccc12
- Biofilm kill mix: -3

> O=C(CCN1c2ccccc2Sc2ccccc21)Oc1ccccc1
- Biofilm kill mix: 9

> C=CCC(NCc1ccccc1)c1ccccc1 (stereo not given)
- Biofilm kill mix: -12

> Cc1ccc(Nc2nc3c(s2)CCC3)c(C)c1
- Biofilm kill mix: 17

> S=C(NCCNCc1ccccc1)NC1CCCCC1
- Biofilm kill mix: 19

> COc1ccc(F)cc1C(=O)C1CCCN(C(=O)CCc2ccccn2)C1 (stereo not given)
- Biofilm kill mix: 15

> Oc1ccc(Br)cc1-c1cc(-c2ccccc2)n[nH]1
- Biofilm kill mix: 18

> N/C(=N\OC(=O)c1ccc2c(c1)OCO2)c1ccc([N+](=O)[O-])cc1
- Biofilm kill mix: 4

> O=C(NCc1ccco1)c1ccc([N+](=O)[O-])o1
- Biofilm kill mix: 13

> Cc1cc(C)c2c(N)c(C(=O)c3ccc(Cl)cc3Cl)sc2n1
- Biofilm kill mix: 12

> COc1ccc(CCNC(=O)c2cc(-c3cc(Cl)ccc3O)n[nH]2)cc1OC
- Biofilm kill mix: 19

> CCOC(=O)N(NC(=O)C(O)(C(C)C)C(C)C)c1ccccc1
- Biofilm kill mix: 20

> C/C(CC(=O)Nc1cccc(C(F)(F)F)c1)=N\NC(=O)Cc1ccccc1
- Biofilm kill mix: 17

> COC(=O)C1(CCSC)NC(c2ccccc2F)C2C(=O)N(c3ccc4c(c3)OCCO4)C(=O)C21 (stereo not given)
- Biofilm kill mix: 5

> CC(C)(C)N1NC2(CCCCC2)NC1=S
- Biofilm kill mix: -33

> Cc1cccc(/C(N)=N/OC(=O)c2cccnc2)c1
- Biofilm kill mix: 23

> CS(=O)(=O)N(Cc1ccc(C(=O)NN=C2CCCC2)cc1)c1ccccc1
- Biofilm kill mix: 12

> Nc1nnc(SCC(=O)N2CCN(c3cccc(Cl)c3)CC2)n1-c1ccccc1
- Biofilm kill mix: 7

> Cn1cc(CN2CCCC(C(=O)c3ccc(-c4ccccc4)c(F)c3)C2)cn1 (stereo not given)
- Biofilm kill mix: 0

> N#Cc1c(-c2ccc(Cl)cc2)c2c([nH]c1=O)-c1ccccc1OC2
- Biofilm kill mix: 30
